Bioassay records as filed in PubChem.
Rce1 inh: yeast Ras-converting enzyme inhibition; Q03530; yeast membranes, quenched prenylated peptide cleavage fluorescence; calls only; 290,000 compounds, 0.27% hits; AID 2563;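 active means fall in fluorescence gain of 50% or more versus controls, with final raw signal at or below 3038400; inconclusive means same 50% fall but final raw signal above 3038400; inactive means fall in fluorescence gain under 50%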;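 further: plate controls were neutral control wells for no effect and wells lacking membranes for full effect; tested at 10 µM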
Target sequence (Q03530 whole entry, looked up): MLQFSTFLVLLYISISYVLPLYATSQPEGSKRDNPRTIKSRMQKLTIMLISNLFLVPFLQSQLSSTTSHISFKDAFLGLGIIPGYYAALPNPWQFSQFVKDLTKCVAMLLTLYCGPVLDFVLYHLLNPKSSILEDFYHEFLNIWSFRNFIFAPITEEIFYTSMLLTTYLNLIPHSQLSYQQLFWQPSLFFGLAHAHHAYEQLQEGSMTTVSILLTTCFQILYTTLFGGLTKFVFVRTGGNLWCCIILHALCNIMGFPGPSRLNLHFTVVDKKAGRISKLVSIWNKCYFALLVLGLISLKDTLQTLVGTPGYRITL
PABP FP inh: blocks human PABP binding to poly(A) RNA; fluorescence polarization; inhibition, % at 35 µM; 290,000 compounds, 1% hits; AID 2014;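 active means 50% or more with normal probe brightness, or confirmed in later tests; inconclusive means above 50% with abnormal brightness, or retests that disagree; inactive means below 50% or failed in later tests; about a fifth of its hits are not listed in these tables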;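 further: calls also rest on retests at 20 µM and on dose response follow-up; controls were probe without protein and protein plus probe with vehicle; some compounds called inactive have numbers as strong as hits; many hits fall short of the cut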
Target sequence (P11940 whole entry, looked up): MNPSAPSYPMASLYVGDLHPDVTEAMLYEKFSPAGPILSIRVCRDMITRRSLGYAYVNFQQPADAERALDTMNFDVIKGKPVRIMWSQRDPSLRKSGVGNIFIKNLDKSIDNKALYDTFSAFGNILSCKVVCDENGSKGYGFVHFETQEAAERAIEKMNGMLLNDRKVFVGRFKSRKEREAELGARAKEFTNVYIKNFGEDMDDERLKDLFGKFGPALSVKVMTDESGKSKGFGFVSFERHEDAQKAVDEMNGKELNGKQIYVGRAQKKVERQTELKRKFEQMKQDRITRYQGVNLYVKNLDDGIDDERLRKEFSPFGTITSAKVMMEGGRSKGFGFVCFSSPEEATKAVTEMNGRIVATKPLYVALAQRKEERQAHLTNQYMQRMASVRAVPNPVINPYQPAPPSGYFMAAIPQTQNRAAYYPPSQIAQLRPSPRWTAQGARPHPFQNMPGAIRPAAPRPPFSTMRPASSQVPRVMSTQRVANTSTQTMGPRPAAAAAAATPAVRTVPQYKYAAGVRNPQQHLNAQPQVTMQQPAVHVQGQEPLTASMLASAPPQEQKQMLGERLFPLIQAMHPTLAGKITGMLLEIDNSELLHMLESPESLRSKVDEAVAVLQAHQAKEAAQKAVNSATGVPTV
eIF4H inh: inhibitors of RNA binding by human eIF4H | eIF4H fluorescence polarization binding assay | 290,000 compounds, 0.94% hits | inhibition, % at 35 µM;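 active means 50% or more with normal probe brightness, or confirmed in later tests; inconclusive means above 50% with abnormal brightness, or retests that disagree; inactive means below 50% or failed in later tests; about a fifth of its hits are not listed in these tables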;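 further: calls also rest on retests at 20 µM and on dose response follow-up; 0% = protein and probe with vehicle and 100% = probe without protein; strong numbers were not always called active; many hits fall short of the cut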
MT1-MMP act inh: inhibitors of human MT1-MMP activation; 360,000 compounds, 0.061% hits; GFP/RFP ratio change, % at 20 µM; HT1080 RFP-PRO-GFP cells, GFP/RFP ratio fluorescence, overnight; percent of plate control window, DMSO zero;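 active means GFP/RFP ratio change of at least 30% with cell ATP level not reduced by more than half and red fluorescence within 50% of control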; further: strong numbers were not always called active
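Assay system: HT1080 cells carrying an RFP-PRO-GFP reporter | Dosing: Single dose of 20 µM compound, 1% DMSO final | Incubation: Cells overnight before dosing, compound overnight, 37 °C, 5% CO2 | Evaluation: GFP/RFP fluorescence ratio | Control set: DMSO and RFP-L50D-GFP cell wells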
CSC inhib: cancer stem cell inhibition | inhibition, % at 7.5 µM | 300,000 compounds, 1.1% hits | cancer stem cell-like cells viability, luminescence;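 active means mean at 75% or more and at least half the replicates too; inconclusive means mean and replicates disagree; tested in HMLE shEcad cells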;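 further: 0% = median of negative and 100% = median of positive control wells; the first replicate is given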
Yeast UUG start: alters start codon recognition fidelity in yeast. S. cerevisiae UUG-firefly luciferase reporter, luminescence/redox ratio. activity score, % at 18.7 µM. 350,000 compounds, 0.13% hits;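 active means replicate mean at a twofold rise or more, about +100% in these data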;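 further: firefly luciferase made from a UUG start codon reports start codon fidelity; reporter light over untreated wells divided by growth signal over untreated wells; some hits fall short of that in this replicate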
HIV Env fusion: blocks HIV Env-driven cell-cell fusion. 360,000 compounds, 1.1% hits. inhibition, % at 12.3 µM. HeLa-JRFL Env/CEM21 cell fusion, luciferase;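 active means mean replicate inhibition score of at least 50 and every replicate individually at or above 50; inconclusive means only one of the two criteria met; inactive means mean below 50 and not all replicates reaching 50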;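 further: 0% = plate neutral controls and 100% = maraviroc near 300 nM; one replicate is shown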
eIF4H inh retest: further read-out of eIF4H inh, marked with its call; inhibition, %; compound at 20 µM; confirmation average;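 mean of two retest wells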
PABP FP inh retest: further read-out of PABP FP inh, marked with its call; inhibition, %; compound at 20 µM; confirmation repeats;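 mean of two retest wells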
MT1-MMP act inh RFP: recorded beside MT1-MMP act inh, whose call it bears; RFP signal change, %; measured here: RFP expression control read;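 0 = vehicle wells; hits needed this value within 50% of zero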
An asterisk follows results filed as active; i = inactive; ? = inconclusive; . = not tested or not shown.

SMILES | Rce1 inh | PABP FP inh | eIF4H inh | MT1-MMP act inh | MT1-MMP act inh RFP | CSC inhib | Yeast UUG start | HIV Env fusion | others
Cc1ccc(CC2S/C(=C(/C#N)C(=O)N3CCOCC3)N(c3ccccc3)C2=O)cc1 (configuration not stated) | i | -2 | 2 | -10 | 4 | -3 | . | 20
O=C(CN1CCN(S(=O)(=O)c2cccs2)CC1)N1CCCCC1 | . | . | . | 2 | 2 | . | -12 | 3
CCS(=O)(=O)c1ccc2c(c1)N(S(=O)(=O)c1ccccc1)CC(C(=O)O)O2 (configuration not stated) | . | 2 | -2 | -2 | -2 | 3 | -4 | -23
CC1CCCCN1C(=O)COC(=O)c1cc([N+](=O)[O-])ccc1N1CCOCC1 (configuration not stated) | i | . | . | 2 | 4 | -8 | 7 | 2
O=C(Nc1ccc2nc(-c3cccs3)[nH]c2c1)c1ccco1 | i | 9 | 2 | 9 | 5 | -18 | -16 | .
Cc1ccc(NC(=O)N(Cc2cccs2)Cc2cc3cc4c(cc3[nH]c2=O)OCO4)cc1 | i | ? | -1 | . | . | 22 | . | 6
CCOc1cc(S(=O)(=O)NCC2OCCc3ccccc32)c(OCC)cc1-n1cnnn1 (configuration not stated) | i | -3 | -3 | 1 | 1 | -4 | -2 | .
CCOC(=O)c1nn(-c2cccc(OC)c2)c2nc(CC)c(C#N)c(=O)n12 | i | 2 | 1 | 1 | 2 | -11 | -14 | .
Cc1ccc(C(C)NC(=O)c2ccc3c(c2)OCO3)cc1C (configuration not stated) | i | -9 | -8 | 3 | 3 | 2 | -18 | -7
Cc1ccc(-n2c(C)cc(/C=C3\SC(=O)NC3=O)c2C)cc1 | i | -2 | -3 | 3 | -2 | 2 | -32 | -57
Cc1ccc(NC(=O)CSc2ccc(-c3ccccn3)nn2)c(C)c1 | i | 7 | 1 | 8 | 2 | 7 | -29 | -1
Cc1ccc(-c2nc(-c3ccncc3)no2)c(Cl)c1 | i | 6 | 8 | 1 | -3 | 0 | -29 | -35
CC(NC(=O)c1cc(Br)cs1)C1CCCO1 (configuration not stated) | i | 4 | -4 | 3 | 8 | -13 | -28 | 0
O=C(NCc1ccco1)C1CC(c2c(Cl)cccc2Cl)=NO1 (configuration not stated) | i | 3 | 8 | -3 | 2 | 8 | -14 | -6
CC(=O)c1cccc(NC(=O)N2CCCC(C(=O)c3cc(F)ccc3F)C2)c1 (configuration not stated) | i | 1 | 1 | -4 | -4 | 0 | . | -3
Cc1ccc(C(=O)NC(=S)Nc2ccc(Oc3ccc(Cl)cc3)cc2)cc1 | i | 7 | -10 | -6 | -2 | 31 | -5 | .
COc1cc(/C=C/C(=O)OCC(=O)NC(=O)NC23CC4CC(CC(C4)C2)C3)ccc1OCC#N | i | -10 | 3 | 4 | -9 | 21 | . | 24
CCN(c1ccccc1)S(=O)(=O)c1ccc(Cl)c(NC(=O)CN2C(=O)NC3(CCCC3)C2=O)c1 | i | 8 | 2 | -3 | -7 | 0 | -22 | 19
CCSc1nnc(NC(=O)C2CCN(S(=O)(=O)c3ccccc3C(F)(F)F)CC2)s1 | i | -4 | 1 | -2 | -10 | 18 | . | -124
COc1ccc(-c2ccc(CN3C(CC(C)C)C(=O)N(Cc4cn(CC5CCCCC5)nn4)CCS3(=O)=O)cc2)cc1OC (configuration not stated) | . | . | . | -10 | -12 | . | -26 | 3
O=C1C(Cl)=C(NS(=O)(=O)c2ccc([N+](=O)[O-])cc2)C(=O)c2ccccc21 | i | 1 | 8 | -6 | -2 | 40 | . | 0
O=C(Nc1ccc2c(c1)CCC2)C1CCN(c2c3c(nc4ncnn24)CCC3)CC1 | i | 1 | 5 | -7 | -18 | . | 2 | 96*
COc1cccc(-c2nc(CS(=O)(=O)CC(=O)N3CCN(C4CCCCC4)CC3)c(C)o2)c1 | i | -6 | 2 | 12 | 7 | 9 | -6 | 11
CC(C)c1ccc(C(=O)Nc2cccnc2)cc1 | i | 9 | 13 | 7 | -7 | -11 | -27 | -68
Cc1cccc(/C=N/NC(=O)c2cc3c(s2)-c2ccccc2CC3)c1 | i | 7 | 4 | -5 | -6 | 56 | -2 | .
Nc1nc(=O)n(C2CC(O)C(CO)O2)cc1Cl (configuration not stated) | . | . | . | 4 | 8 | . | -11 | -124
CC(C)(C)c1cc(C(=O)O)c(CN2CCCCC2)o1 | i | 4 | 5 | -4 | 2 | . | -15 | -16
CCCn1c2ccccc2c2cnn(CC(=O)N3CCOCC3)c(=O)c21 | i | 2 | -9 | -1 | 0 | -2 | -15 | -2
COc1ccc2nc(C)cc(SCC(=O)NNC(=O)COc3cccc4ccccc34)c2c1 | i | 7 | -9 | 3 | 1 | -6 | . | 19
CCc1cc2c(=O)n(CCCOC)c(SCC(=O)Nc3oc(C)c4c(C)n[nH]c(=O)c34)nc2s1 | i | . | . | 1 | 1 | -7 | . | 1
CCOCCn1c(CN2CCN(CC)CC2)nc2c1c(=O)n(C)c(=O)n2C | i | 8 | -1 | -5 | 2 | -12 | -14 | .
COc1cccc(C(O)c2nc(-c3ccc(F)cc3OC)cs2)c1 (configuration not stated) | . | . | . | 2 | 0 | . | -8 | -12
CC(Oc1ccc(-n2cnnn2)cc1)C(=O)O (configuration not stated) | i | 3 | 0 | 1 | 4 | -20 | 13 | 7
CCCNc1c(NS(=O)(=O)c2c(F)c(F)c(F)c(F)c2F)c(=O)oc2ccccc12 | i | 3 | -11 | -1 | 6 | 32 | -10 | 4
CC(C)N(C(=O)[C@H]1C[C@H](CC(=O)NCc2ccco2)C(=O)N2CCc3c([nH]c4cc(CCC(=O)N(C)C)ccc34)[C@]12C)C(C)C | . | . | . | 1 | 2 | . | 10 | -74
CSc1nnc2c(n1)OC=Nc1ccc(Br)cc1-2 | i | -8 | 4 | 6 | 8 | -8 | -15 | 12
Cc1ccc(NC(=O)n2ccc(-c3ccc(-n4ccnc4)cc3)n2)cc1 | . | 1 | -4 | 2 | 2 | . | . | -57
CCOC(=O)c1csc(-c2snnc2C)n1 | . | 1 | -9 | 2 | 4 | -3 | . | -16
COC(=O)c1cccc(NC(=O)Cn2nnc3ccccc32)c1 | i | -7 | -4 | -3 | -1 | . | -17 | 19
C=CCNc1nc(C(=O)OCC(=O)Nc2ccc(S(N)(=O)=O)cc2)cs1 | i | . | . | -4 | 1 | -4 | -22 | 9
O=C1CN(c2nc(-c3ccccc3)c3cc(Cl)ccc3n2)c2ccccc2N1 | i | 6 | 24 | -3 | 6 | -29 | 13 | -31
Cc1cc(=O)n(C)c(=O)n1CCCCCCOc1cccc([N+](=O)[O-])c1 | i | -3 | 5 | 1 | -19 | -17 | . | 41
Cn1c(=O)oc2cc(S(=O)(=O)NCc3ccccc3)ccc21 | i | 5 | 8 | 3 | 4 | -3 | -14 | .
Cc1ccc(CCNC(=O)C2CCN(S(=O)(=O)N3CCOCC3)CC2)cc1 | i | -1 | 1 | -4 | 0 | -7 | -6 | -3
O=C(O)CCCC(=O)Nc1nc(-c2ccc(F)cc2)cs1 | i | 9 | -4 | 1 | -1 | -7 | -20 | .
CCc1nnc(NC(=O)C(C)Sc2ccccc2)s1 (configuration not stated) | i | 8 | 4 | 4 | 5 | 1 | -20 | 2
OCCC1CN(Cc2ccc(Oc3ncccn3)cc2)CCN1C1CCCC1 (configuration not stated) | i | -10 | 7 | 2 | 2 | 5 | . | 7
Cc1nn2c(C(F)(F)F)c3c(nc2c1-c1ccccc1)CCC3 | . | -2 | -6 | -1 | 0 | -2 | . | -162
O=C(NNS(=O)(=O)c1ccccc1[N+](=O)[O-])c1cccc(Cl)c1 | i | 13 | -5 | 5 | 6 | -7 | -3 | -15
CCCc1nc2c(C)cc(Br)cn2c1Cc1ccc(OC)cc1C | . | . | . | -1 | 0 | . | -3 | -26
C=CCn1c(SCc2cc(=O)n3ccsc3n2)nnc1C1CCCCC1 | i | 26* | 73* | 20 | 6 | -7 | -2 | . | eIF4H inh retest=101*;PABP FP inh retest=86*
Cc1ccc(C(=O)Nc2ccc(C(=O)N/N=C/c3ccc(C)o3)cc2)cc1 | i | 1 | 0 | 1 | 1 | 0 | -8 | 0
OC1=C(O)c2nc3ccccc3nc21 | i | -4 | -6 | -8 | -2 | -10 | -11 | .
CCCCN(C(=O)c1cccc(-n2cnnn2)c1)c1c(N)n(CC(C)C)c(=O)[nH]c1=O | . | . | . | 2 | 2 | -12 | -14 | -14
CC1=C(C(=O)Nc2ccc(Cl)cc2)C2(CCCCC2)C(C(N)=O)C(=S)N1 (configuration not stated) | i | 1 | 3 | . | . | -5 | . | -11
Cc1ccc(S(=O)(=O)C(C#N)c2nc3ccccc3nc2N2CCC(C)CC2)cc1 (configuration not stated) | i | ? | ? | -5 | 1 | . | -12 | .
CSc1ncc2c(n1)-c1cc(C)ccc1SC2 | i | -3 | 9 | 2 | 3 | . | -4 | .
O=C(COC(=O)c1ccccc1F)Nc1ccc2c(c1)OCCO2 | . | . | . | -1 | 2 | . | -71 | 6
Cc1cc(-n2c(SCCC#N)nnc2-c2cccnc2)ccc1Cl | i | 2 | 16 | 5 | -4 | -5 | -8 | -13
c1ccc(Cn2c(CN3CCCC3)nc3ccccc32)cc1 | i | 3 | 10 | -2 | 2 | 59 | -6 | -106

Two records picked at random from the list so far, as already listed:
SMILES | Rce1 inh | PABP FP inh | eIF4H inh | MT1-MMP act inh | MT1-MMP act inh RFP | CSC inhib | Yeast UUG start | HIV Env fusion | others
Cc1ccc(C(=O)Nc2ccc(C(=O)N/N=C/c3ccc(C)o3)cc2)cc1 | i | 1 | 0 | 1 | 1 | 0 | -8 | 0
CCCCN(C(=O)c1cccc(-n2cnnn2)c1)c1c(N)n(CC(C)C)c(=O)[nH]c1=O | . | . | . | 2 | 2 | -12 | -14 | -14

Continued:
SMILES | Rce1 inh | PABP FP inh | eIF4H inh | MT1-MMP act inh | MT1-MMP act inh RFP | CSC inhib | Yeast UUG start | HIV Env fusion | others
COc1ccc(/C=C(\C#N)C(=O)OCC(=O)NC2CC2)cc1 | i | 26 | -5 | -3 | -1 | 1 | . | 17
Cc1ccc(CNC(=O)c2ccc(N3CCC4(CC3)CC(c3cccc(Br)c3)=NO4)c(NC(=O)c3ccc(Cl)c([N+](=O)[O-])c3)c2)cc1 | . | . | . | -1 | 0 | . | -15 | 19
COCCN(C(=O)CCC(=O)Nc1nccs1)C(C(=O)NCCC(C)C)c1ccc(F)cc1 (configuration not stated) | i | 4 | -14 | -3 | 0 | -7 | -13 | 4
COc1cc(CNC(=O)OCC(C)C)cc(OC)c1OC | i | -7 | -12 | 6 | 2 | . | -6 | .
Cc1ccc(S(=O)(=O)NCC(=O)OCC(=O)N(C)C2CCS(=O)(=O)C2)cc1 (configuration not stated) | i | . | . | -2 | 1 | 14 | 0 | 2
Cc1c(Cl)cccc1Nc1nc(NCCO)c2ccccc2n1 | i | -6 | -12 | 6 | -3 | 23 | 5 | 3
c1coc(CNCCCN2CCOCC2)c1 | i | 2 | 4 | 8 | 7 | -6 | -16 | -26
CS(=O)(=O)N1CCCC(C(=O)NCCc2ccccc2)C1 (configuration not stated) | i | 6 | -14 | -2 | -1 | 27 | -11 | .
O=C1N/C(=C/c2cccn2-c2ccccc2)C(=O)N1c1cccc(Cl)c1 | i | 0 | 3 | 13 | 9 | 14 | -9 | -20
CC(=O)c1c(C)[nH]c(C(=O)OCc2cccc(C)c2)c1C | i | -3 | 6 | -9 | -21 | -12 | -8 | 16
Cc1cc(C)n(-c2nc3ccccc3c(=O)n2OCCOc2ccccc2)n1 | i | -4 | -4 | 6 | -1 | 2 | 0 | .
Cn1nnnc1SCC(=O)Nc1ccc(Br)cc1Br | . | . | . | 11 | -3 | 8 | -17 | .
